# MLL AF4-AF9 inh – blocks AF4 peptide binding to human AF9 | P42568 | AlphaScreen, biotin-AF4 peptide binding to FLAG-AF9 | inhibition, % at 10 µM | hit rate 0.47% among 350,000;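 active = every replicate reaching a set inhibition limit, whatever the replicate mean, cut at about 25% in these data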;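 note: 0% = plate neutral control median and 100% = total signal loss; the record names both 10 and 1 µM as test concentration; the first replicate is given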
# Target sequence (P42568 whole entry, looked up): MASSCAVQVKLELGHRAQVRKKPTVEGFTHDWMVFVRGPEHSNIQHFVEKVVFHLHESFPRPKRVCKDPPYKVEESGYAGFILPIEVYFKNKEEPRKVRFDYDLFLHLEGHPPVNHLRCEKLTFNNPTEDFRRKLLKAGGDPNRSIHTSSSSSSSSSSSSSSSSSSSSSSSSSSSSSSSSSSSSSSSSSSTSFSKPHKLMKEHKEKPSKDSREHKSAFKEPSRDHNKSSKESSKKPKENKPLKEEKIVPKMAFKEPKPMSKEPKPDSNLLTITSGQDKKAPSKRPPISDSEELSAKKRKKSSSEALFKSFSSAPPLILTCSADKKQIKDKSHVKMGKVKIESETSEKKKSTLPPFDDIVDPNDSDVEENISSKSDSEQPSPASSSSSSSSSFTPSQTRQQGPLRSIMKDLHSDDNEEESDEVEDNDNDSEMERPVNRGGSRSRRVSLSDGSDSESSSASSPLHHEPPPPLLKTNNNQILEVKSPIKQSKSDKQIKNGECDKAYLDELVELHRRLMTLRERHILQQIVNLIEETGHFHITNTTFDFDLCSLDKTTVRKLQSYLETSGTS
# Active calls of the source: *. Only part of the results is shown (hit frequency here may not be typical).
no.	smiles	MLL AF4-AF9 inh
1	C[C@H](CO)N1C[C@H](C)[C@@H](CN(C)Cc2ccccc2)OCCCC[C@H](C)Oc2ccc(NS(=O)(=O)c3cccs3)cc2C1=O	1.0
2	CCCCN(C)c1c(C)nc2ccc(C(=O)Nc3ccc(OC)c(OC)c3)cn12	4.2
3	Cc1ccc(CC2(C)C(=O)Nc3c(Cl)ccc(Cl)c32)cc1 (stereo not given)	-3.7
4	COc1ccc(NC(=O)CCCOc2ccc(C)cc2)cc1S(=O)(=O)N1CCCCC1	-2.2
5	CCCC#Cc1ccc2c(c1)O[C@H](CN(C)C(=O)Nc1ccc(OC)cc1)[C@H](C)CN([C@@H](C)CO)S2(=O)=O	-0.9
6	Nc1ncnc2c1ncn2[C@@H]1O[C@H](CNCc2ccc(-c3cc(C(F)(F)F)ccc3Cl)o2)[C@@H](O)[C@H]1O	2.2
7	O=C(C[C@@H]1CC[C@H](NC(=O)c2cccnc2)[C@@H](CO)O1)NCc1ccncn1	-2.6
8	COc1cccc(S(=O)(=O)N2C[C@@H](O)COC[C@@H]3O[C@H](CC(=O)N4CCN(c5ccccc5)CC4)CC[C@H]32)c1	3.4
9	C[C@H](CO)N1C[C@H](C)[C@@H](CN(C)C(=O)Nc2cccc3ccccc23)Oc2ccc(NC(=O)C3CC3)cc2CC1=O	-2.3
10	CCOc1ccc(S(=O)(=O)NCc2cccnc2)cc1NC(=O)c1ccccc1	3.1
11	COc1ccc2c3c([nH]c2c1)[C@@H](CO)N(Cc1cc(F)ccc1F)CC31CN(C)C1	2.5
12	CCOC(=O)C1=C[C@@H](C(C)(C)C)N(S(=O)(=O)c2ccc(C)cc2)[C@H]1c1ccccc1	0.0
13	O=C(O)c1cccc(-c2csc(C(O)c3ccc(F)cc3)n2)c1 (stereo not given)	0.1
14	C[C@@H]1CN([C@H](C)CO)C(=O)c2cc(C3=CCCC3)cnc2O[C@H]1CN(C)C(=O)Nc1ccc(F)cc1	-1.6
15	CCCC(=O)N1CCC1(C)C(=O)Nc1ccccc1-c1ccccc1 (stereo not given)	-7.7
16	Cc1ccc(S(=O)(=O)Nc2cccc3c2O[C@@H](CN(C)Cc2ccccc2)[C@@H](C)CN([C@@H](C)CO)C3=O)cc1	-2.0
17	COc1ccccc1S(=O)(=O)N(C)C[C@@H]1Oc2cc(/C=C/c3ccccc3)ccc2S(=O)(=O)N([C@H](C)CO)C[C@@H]1C	5.0
18	O=C(N[C@H]1CC[C@@H](CCNS(=O)(=O)c2ccc(F)cc2)O[C@@H]1CO)C1CCCC1	-1.4
19	C[C@H](CO)N1C[C@H](C)[C@@H](CN(C)C(=O)Nc2ccccc2F)Oc2cc(-c3cccc(C#N)c3)ccc2S1(=O)=O	-1.5
20	CCC(=O)Nc1ccc2c(c1)OC[C@H](C)N(Cc1nccs1)C[C@H](C)[C@H](OC)CN(C)C2=O	4.4
21	Cc1ccc(S(=O)(=O)N(C)C[C@H]2Oc3ccc(NC(=O)C4CC4)cc3CC(=O)N([C@@H](C)CO)C[C@@H]2C)cc1	-0.5
22	C[C@@H]1CN([C@@H](C)CO)C(=O)Cc2cc(NS(=O)(=O)c3ccc(Cl)cc3)ccc2O[C@H]1CN(C)C(=O)Nc1ccccc1	-0.3
23	C[C@@H]1CN([C@H](C)CO)C(=O)c2cc(-c3cccc(C#N)c3)cnc2O[C@H]1CN(C)C(=O)C1CC1	-1.3
24	COC(=O)[C@H]1[C@H](CO)[C@H]2Cn3c(ccc(C4=CCCCC4)c3=O)[C@H]2N1C(=O)C1CC1	-0.9
25	Cc1noc(C)c1S(=O)(=O)N(C)C[C@H]1OCCCC[C@H](C)Oc2ccc(NS(C)(=O)=O)cc2C(=O)N([C@@H](C)CO)C[C@@H]1C	-9.2

# Seven entries from above, ordered by the number in MLL AF4-AF9 inh, lowest first:
no.	smiles	MLL AF4-AF9 inh
7	O=C(C[C@@H]1CC[C@H](NC(=O)c2cccnc2)[C@@H](CO)O1)NCc1ccncn1	-2.6
16	Cc1ccc(S(=O)(=O)Nc2cccc3c2O[C@@H](CN(C)Cc2ccccc2)[C@@H](C)CN([C@@H](C)CO)C3=O)cc1	-2.0
14	C[C@@H]1CN([C@H](C)CO)C(=O)c2cc(C3=CCCC3)cnc2O[C@H]1CN(C)C(=O)Nc1ccc(F)cc1	-1.6
18	O=C(N[C@H]1CC[C@@H](CCNS(=O)(=O)c2ccc(F)cc2)O[C@@H]1CO)C1CCCC1	-1.4
22	C[C@@H]1CN([C@@H](C)CO)C(=O)Cc2cc(NS(=O)(=O)c3ccc(Cl)cc3)ccc2O[C@H]1CN(C)C(=O)Nc1ccccc1	-0.3
12	CCOC(=O)C1=C[C@@H](C(C)(C)C)N(S(=O)(=O)c2ccc(C)cc2)[C@H]1c1ccccc1	0.0
17	COc1ccccc1S(=O)(=O)N(C)C[C@@H]1Oc2cc(/C=C/c3ccccc3)ccc2S(=O)(=O)N([C@H](C)CO)C[C@@H]1C	5.0

# (cont.)
no.	smiles	MLL AF4-AF9 inh
26	CCC(=O)Nc1ccc2c(c1)C(=O)N(C)[C@@H]1CC[C@H](CC(=O)N[C@@H](C)c3ccccc3)O[C@H]1CO2	-1.0
27	CNC[C@H]1OCCCC[C@H](C)Oc2ccc(NC(=O)NC3CCCCC3)cc2C(=O)N([C@H](C)CO)C[C@@H]1C	2.3
28	COC(=O)C[C@@H]1CC[C@H]2[C@H](COc3ccc(NC(=O)Nc4cccc(C#N)c4)cc3C(=O)N2C)O1	3.2
29	CCCNC(=O)N1CC[C@@H]2[C@H]1c1cc(-c3ccc(OC)cc3)ccc1N(C)[C@H]2CO	14
30	Cc1noc(C)c1S(=O)(=O)Nc1ccc2c(c1)C(=O)N([C@@H](C)CO)C[C@@H](C)[C@@H](CN(C)C(=O)NC1CCCCC1)O2	-15
31	C[C@H](O)C#Cc1ccc2c(c1)O[C@@H](CN(C)C(=O)C1CC1)[C@H](C)CN([C@@H](C)CO)S2(=O)=O	-2.1
32	CNc1ncnc2c1ncn2[C@H]1CN(CCOC)C[C@@H](CO)O1	-2.4
33	CS(=O)(=O)Nc1ccc2c(c1)[C@@H]1C[C@H](CC(=O)NCc3cc(F)ccc3F)O[C@@H](CO)[C@@H]1O2	0.5
34	C[C@@H]1CN([C@@H](C)CO)C(=O)c2cc(NC(=O)Nc3ccccc3)ccc2O[C@@H](C)CCCCO[C@H]1CN(C)C(=O)Cc1ccccc1	0.5
35	C[C@H]1CN([C@@H](C)CO)C(=O)c2cc(Br)cnc2O[C@@H]1CN(C)C(=O)c1ccc(F)cc1	-2.1
36	C[C@@H]1CN([C@@H](C)CO)C(=O)c2cc(NC(=O)c3ccccc3)ccc2O[C@@H](C)CCCCO[C@H]1CN(C)CC1CCCCC1	27*
37	OC[C@@H]1[C@H](c2ccc(-c3ccc(F)cc3)cc2)[C@@H](CNC2CCCC2)N1CCC(F)(F)F	4.7
38	CCN1[C@@H]2Cn3c(ccc(-c4cccnc4)c3=O)[C@H]1[C@@H](C(=O)NC1CCCC1)[C@@H]2CO	-2.6
39	O=C(C[C@@H]1C[C@H]2c3cc(NC(=O)NC4CCCCC4)ccc3O[C@H]2[C@H](CO)O1)NCC1CC1	0.1
40	C[C@@H](NC(=O)C[C@@H]1CC[C@H](NC(=O)C2CCOCC2)[C@H](CO)O1)c1ccccc1	-0.8
41	CN(Cc1ccccc1)Cc1ccccc1C(O)c1ccccc1 (stereo not given)	-0.3
42	CC(=O)c1cccc(-c2csc3ncnc(Sc4nnnn4C)c23)c1	-2.3
43	N#C[C@H]1[C@@H](c2ccccc2-c2ccc(F)cc2)[C@@H](CO)N1C(=O)Cc1cccnc1	-1.6
44	C[C@H](CO)N1C[C@H](C)[C@@H](CN(C)S(=O)(=O)c2cccs2)Oc2ccc(NC(=O)CCN3CCOCC3)cc2C1=O	-9.1
45	CO[C@H](CN(C)C(=O)Nc1ccc(C(F)(F)F)cc1)[C@@H](C)CN(Cc1ccccc1Cl)[C@@H](C)CO	-1.4
46	CCCNC(=O)C[C@@H]1CC[C@H]2[C@@H](COC[C@@H](O)CN2C(=O)C2CCOCC2)O1	-3.2
47	CN1C(=O)c2cc(NC(=O)c3ccc(F)c(F)c3)ccc2OC[C@H]2O[C@@H](CC(=O)Nc3ccc4c(c3)COC4)CC[C@@H]21	-2.0
48	O=C(O)[C@@H]1[C@@H](CO)[C@@H]2Cn3c(cccc3=O)[C@@H]2N1C(=O)NC1CCCC1	-1.2
49	CC(=O)C(=Cc1ccccc1)c1ccccc1	-0.2
50	Cc1noc(C)c1S(=O)(=O)Nc1ccc2c(c1)C(=O)N([C@@H](C)CO)C[C@H](C)[C@H](CN(C)Cc1ccccc1)OCCCC[C@@H](C)O2	7.0
51	CCCNC(=O)C[C@H]1CC[C@H]2[C@H](COc3ccc(NS(=O)(=O)c4ccccc4C)cc3C(=O)N2C)O1	-0.1
52	O=C(O)C[C@H]1C[C@H]2c3cc(NC(=O)Nc4ccccc4)ccc3O[C@H]2[C@@H](CO)O1	-7.7
53	COc1cccc(C#Cc2ccc3c(c2)[C@H]2[C@H](CCN2C(=O)c2ccc4c(c2)OCO4)[C@H](CO)N3)c1	-2.8
54	CN1C(=O)c2cc(NC(=O)c3ccc(C#N)cc3)ccc2OC[C@H]2O[C@@H](CC(=O)NC3Cc4ccccc4C3)CC[C@@H]21	-0.1
55	COc1ccc(C(=O)c2[nH]c(N)c(C(=O)NCCc3c[nH]c4ccccc34)c2-c2ccc(Br)cc2)cc1	0.4
56	C[C@@H]1CN([C@@H](C)CO)C(=O)c2cc(NC(=O)CCN3CCOCC3)ccc2O[C@H]1CN(C)S(C)(=O)=O	-4.3
57	Cc1cc(C(=O)Nc2cccc3c2O[C@H](CN(C)S(C)(=O)=O)[C@@H](C)CN([C@@H](C)CO)C3=O)n(C)n1	-1.1
58	COc1ccc2c3c(n(C)c2c1)[C@H](CO)NCC31CCN(C(=O)Nc2ccc3c(c2)OCO3)CC1	9.6
59	C[C@@H]1CN([C@H](C)CO)S(=O)(=O)c2ccc(Br)cc2O[C@H]1CN(C)S(=O)(=O)c1ccc(F)cc1	2.3
60	Cc1nn(C)cc1NC(=O)C[C@H]1CC[C@@H]2[C@H](COc3ccc(NC(=O)Nc4cccc(Cl)c4)cc3C(=O)N2C)O1	2.4
61	Cc1ccc(C)c(C(O)c2ncc(-c3ccc(C(F)(F)F)cc3)[nH]2)c1 (stereo not given)	1.8
62	COc1ccc(NC(=O)Nc2ccc3c(c2)C(=O)N([C@@H](C)CO)C[C@@H](C)[C@H](CN(C)C(=O)C2CCCCC2)OCCCC[C@@H](C)O3)cc1	-8.4
63	C[C@@H]1CN([C@H](C)CO)C(=O)c2cc(NC(=O)CCC(F)(F)F)ccc2O[C@@H](C)CCCCO[C@H]1CN(C)C(=O)C1CCCCC1	-0.6
64	CCOC(=O)CC1(C)Oc2ccccc2N1S(=O)(=O)c1ccc(C)cc1 (stereo not given)	-5.5
65	CCN(CC(=O)Nc1c(F)cccc1F)C(=O)CCCN1C(=O)c2cccc3cccc(c23)C1=O	0.9
66	CN(C)CC(=O)N[C@@H]1C[C@@H]2O[C@@H](CO)CC[C@@H]2O[C@@H]1CCc1ccc(-c2ccc(F)cc2)cc1	6.3
67	CO[C@H]1CN(C)C(=O)c2cc(NC(=O)CC(F)(F)F)ccc2OC[C@@H](C)N(CC2CC2)C[C@H]1C	-4.3
68	O=C(CN1CCOCC1)NCC[C@@H]1CC[C@H](NS(=O)(=O)c2ccc(F)cc2)[C@@H](CO)O1	-0.5
69	CC(=O)N1C[C@@H]2[C@H](c3ccccc31)[C@@H](CO)N2C(=O)Nc1ccc(F)cc1	-0.5
70	CCOC(=O)C1(C)CCCN(C(=O)c2ccc3ccccc3c2)C1 (stereo not given)	0.1
71	O=C(c1cnccn1)N1CC(=O)N2[C@H](CO)[C@H](c3ccc(-c4cccc(F)c4)cc3)[C@@H]2C1	0.2
72	COc1ccccc1C#Cc1cnc2c(c1)C(=O)N([C@@H](C)CO)C[C@@H](C)[C@@H](CN(C)C(=O)c1ccc3c(c1)OCO3)O2	1.2
73	COc1ccc(OCc2nnc(SCC(=O)Nc3oc(C)c4c(C)n[nH]c(=O)c34)n2C)cc1	-13
74	CC(C)C1CC2=C(C(=O)OC(C)(C)O2)C(c2ccc(F)cc2)O1 (stereo not given)	4.8
75	CSc1ccc(CN2CCC(C)(Oc3ccccc3C)C2)cc1 (stereo not given)	0.9

# Other compounds.
no.	smiles	MLL AF4-AF9 inh
76	C[C@@H]1CN([C@@H](C)CO)C(=O)c2cc(N(C)C)ccc2O[C@@H](C)CCCCO[C@@H]1CN(C)Cc1ccc(C(F)(F)F)cc1	39*
77	C[C@@H]1CCCCO[C@H](CN(C)C(=O)C2CCCCC2)[C@@H](C)CN([C@H](C)CO)C(=O)c2cc(NC(=O)C3CCCCC3)ccc2O1	-2.1
78	CCOC(=O)[C@]12CCCC=C1N(Cc1ccc(Cl)cc1Cl)C(=O)[C@H](CC(=O)NCc1ccc(C)o1)C2	0.2
79	CN1C(=O)c2cc(NC(=O)Cc3cccs3)ccc2OC[C@H]2O[C@H](CC(=O)O)CC[C@@H]21	-0.7
80	CCCc1cn(CC[C@@H]2CC[C@H](NC(=O)CCN3CCCCC3)[C@@H](CO)O2)nn1	-1.2
81	COc1cccc(-c2ccc3n(c2=O)C[C@@H]2[C@@H](CO)[C@H](C(=O)NC4CCCC4)[C@H]3N2C)c1	-0.7
82	O=C(C[C@H]1CC[C@H]2[C@@H](COC[C@@H](O)CN2Cc2nccs2)O1)NCc1ccc(-c2ccccc2)cc1	-2.8
83	CO[C@@H]1CN(C)C(=O)c2ccc(NC(=O)C3CCCC3)cc2OC[C@@H](C)N(C(C)=O)C[C@@H]1C	-1.9
84	O=C(NC1CCCC1)N1CCCCN2[C@@H](CO)[C@H](c3ccc(-c4cccnc4)cc3)[C@@H]2C1	-4.0
85	C[C@@H]1CCCCO[C@H](CN(C)C(=O)Nc2ccc3c(c2)OCO3)[C@@H](C)CN([C@@H](C)CO)C(=O)c2cc(NC(=O)c3ccccc3)ccc2O1	-2.4
86	Cc1ccc(-c2cnc3c(c2)C(=O)N([C@@H](C)CO)C[C@H](C)[C@@H](CN(C)C)O3)cc1	-0.5
87	C[C@@H]1CN([C@@H](C)CO)C(=O)c2cc(NC(=O)CCCCCC(=O)Nc3ccccc3N)ccc2O[C@@H]1CN(C)C(=O)Nc1ccccc1	-12
